# Choline anaer gr = blocks anaerobic gram-negative growth on choline; Gram-negative bacterium anaerobic choline minimal medium, absorbance growth; stronger effect = lower value; many inactives read as strong as hits in the columns shown; calls only; hit rate 0.2% among 55,000; AID 1963822;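 active means growth z-score on choline under -2 at 7 or 20 h with little or no fall on glycerol, limits in tiers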;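 further: stock transfer was 300 nL into about 50 µL; the organism is E. coli; final concentration not given here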
# Choline anaer gr early = recorded beside Choline anaer gr, whose call it bears; z-score; measured here: choline growth z-score, timepoint 1;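 score of optical density at 7 h as mean of two plates; lower means less growth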
# * marks the source's active call; other numbers are inactive results; i = inactive; & = joins results of further samples. This is a subset; count on the stated rates, not on these rows.
no.	molecule	Choline anaer gr	Choline anaer gr early
1	Fc1ccccc1-c1ccc(SCc2nc(-c3ccccc3Br)no2)nn1	i	1.71
2	CCOc1ccc2nc(N3CCC(C(=O)Nc4ccc(OC)cc4)CC3)sc2c1	i	0.42
3	CCC(C)c1ccc(NC(=NCc2ccncc2)NC(=O)c2cccc(NC(C)=O)c2)cc1 (stereo unspecified)	i	-2.03
4	CNC(=O)c1ccc2cc(C3(O)CCn4cncc43)ccc2c1 (stereo unspecified)	i	-0.25
5	O=C(CCc1nc(CSc2nc3ccccc3o2)no1)Nc1cc(F)cc(F)c1	i	-0.52
6	COc1ccc(Cl)cc1NC(=O)N1CCN(c2ccc(=O)n(-c3ccc(F)cc3)n2)CC1	i	0.41
7	COC(=O)c1ccccc1NC(=O)c1ccc(=O)n(Cc2ccccc2F)c1	i	0
8	CN(C)c1ccc(C(CNC(=O)C2CCCCC2)N(C)C)cc1 (stereo unspecified)	i	-0.23
9	O=C(C1CCN(c2cncnc2N2CCCCC2)CC1)N1CCC(N2CCCCC2)CC1	i	0.94
10	CCSc1nn(CC(=O)Nc2cc(C)c(Cl)cc2OC)c(N)c1S(=O)(=O)c1ccc(C)cc1	i	1.2
11	O=C1Nc2ccccc2OC1C(=O)N1CCN(c2ccccc2F)CC1 (stereo unspecified)	i	0.93
12	O=C(Nc1nnc(SCC(=O)N2CCOCC2)s1)NC1CCCCC1	i	-0.91
13	CN(c1ccc2c(c1)OCO2)S(=O)(=O)c1ccsc1-c1nc(-c2ccncc2)no1	i	0.81
14	CC1(C(=O)NC2CCCCC2)CCC(=O)N1Cc1ccc(F)cc1 (stereo unspecified)	i	1.35
15	Cc1nc(CCNC(=O)[C@H]2CCCN2C(=O)c2ccccc2C)cs1	i	-0.31
16	O=C(Nc1ccc(F)cc1)C1CCC(CNS(=O)(=O)c2cccc3cccnc23)CC1 (stereo unspecified)	i	-0.41
17	Cc1noc(Cn2cnc3c4cc(F)ccc4n(Cc4ccccc4F)c3c2=O)n1	i	0.75
18	N[C@H]1CCN(O)C1=O	i	0.69
19	Cc1ccc(C)c(-c2csc(-c3nc(-c4ccc5c(c4)OCO5)cs3)n2)c1	i	-0.6
20	C=CCn1c(=O)c2c(nc(-c3ccc(S(=O)(=O)O)cc3)n2C)n(C)c1=O	i	-0.14

# Reprinted at random: 3 compounds from above.
no.	molecule	Choline anaer gr	Choline anaer gr early
1	Fc1ccccc1-c1ccc(SCc2nc(-c3ccccc3Br)no2)nn1	i	1.71
4	CNC(=O)c1ccc2cc(C3(O)CCn4cncc43)ccc2c1 (stereo unspecified)	i	-0.25
12	O=C(Nc1nnc(SCC(=O)N2CCOCC2)s1)NC1CCCCC1	i	-0.91

# (cont.)
no.	molecule	Choline anaer gr	Choline anaer gr early
21	COC(=O)CCc1c(C)[nH]n(-c2nc(-c3ccc(Cl)cc3)cs2)c1=O	i	-0.15
22	COc1ccc(C(=O)NCC(c2ccc(N(C)C)cc2)N(C)C)c(OC)c1 (stereo unspecified)	i	0.28
23	CCS(=O)(=O)N1CCN(c2ncnc3c2nnn3-c2cccc(F)c2)CC1	i	-1.33
24	CCc1c(C)nc2ncnn2c1Sc1ccc(NS(=O)(=O)c2cccc3nsnc23)cc1	i	-0.71
25	CCc1c(C)nc2nc(NCc3ccccc3C)[nH]n2c1=O	i	0.5
26	CCn1c(=O)n(CC)c2cc(N3CCCC3)c(NC(=O)Nc3cc(Cl)c(OC)cc3OC)cc21	i	0.74
27	Cc1c(CCNC(=O)c2ccc(Br)cc2)sc2nc(-c3ccc(F)cc3)nn12	i	1.6
28	COc1cccc(N(C)C(=S)Oc2ccc3c(c2)CCCC3)n1	i	0.62
29	CCCc1c(C)nc(N2CCN(c3cccc(OC)c3)CC2)[nH]c1=O	i	2.15
30	O=c1ccc(-c2ccc(F)cc2)nn1CCc1nc(-c2ccncc2)no1	i	-0.58
31	Cc1ccc(CNC(=O)Cn2ccc3c(c(C)nn3-c3ccc(C)cc3)c2=O)cc1	i	-0.09
32	CSc1nc(NC(C)C)c(C#N)c(-c2ccccc2)n1	i	0.77
33	Cc1ccc(C)c(N2CCN(C(=O)CN(C)S(=O)(=O)c3ccc4c(c3)C(=O)NCC(=O)N4)CC2)c1	i	-0.21
34	CCCc1nc2ccccc2n1CC(O)COc1ccc(OC)cc1 (stereo unspecified)	i	-0.53
35	COc1ccc(S(=O)(=O)c2c(C)cc(C)n(CC(=O)Nc3ccc(Br)cc3)c2=O)cc1	i	0.11
36	CC(=O)Nc1cccc(C(=O)N(CCC(=O)N2CCNCC2)CC2CCCO2)c1 (stereo unspecified)	i	-0.43
37	CN(C)c1cc(N2CCCC(NC(=O)C3CCC3)C2)ncn1 (stereo unspecified)	i	-0.27
38	COc1ccc(OC(=O)CSc2nc(-c3ccc(OC)cc3)nc3cc(=O)[nH]n23)cc1	i	-0.74
39	CNS(=O)(=O)c1cn(CC(=O)Nc2cccc(Cl)c2)cc1S(=O)(=O)NC	i	0.39
40	CC(C)Oc1ccc(CN2C(=O)c3cc4sccc4n3CC2(C)C(=O)NC2CCCC2)cc1 (stereo unspecified)	i	-0.33

# A different layout for some results above.
33) Cc1ccc(C)c(N2CCN(C(=O)CN(C)S(=O)(=O)c3ccc4c(c3)C(=O)NCC(=O)N4)CC2)c1
  Choline anaer gr: i
  Choline anaer gr early: -0.21

37) CN(C)c1cc(N2CCCC(NC(=O)C3CCC3)C2)ncn1 (stereo unspecified)
  Choline anaer gr: i
  Choline anaer gr early: -0.27

# Values in list order from the list.
# Entries 15 to 20 in Choline anaer gr: i, i, i, i, i, i
# Entries 15 to 20 in Choline anaer gr early: -0.31, -0.41, 0.75, 0.69, -0.6, -0.14

# A draw from above in order of molecular weight, rising.
no.	molecule	Choline anaer gr	Choline anaer gr early
28	COc1cccc(N(C)C(=S)Oc2ccc3c(c2)CCCC3)n1	i	0.62
34	CCCc1nc2ccccc2n1CC(O)COc1ccc(OC)cc1 (stereo unspecified)	i	-0.53
21	COC(=O)CCc1c(C)[nH]n(-c2nc(-c3ccc(Cl)cc3)cs2)c1=O	i	-0.15
23	CCS(=O)(=O)N1CCN(c2ncnc3c2nnn3-c2cccc(F)c2)CC1	i	-1.33
24	CCc1c(C)nc2ncnn2c1Sc1ccc(NS(=O)(=O)c2cccc3nsnc23)cc1	i	-0.71

# The results go on.
no.	molecule	Choline anaer gr	Choline anaer gr early
41	O=C(c1ccc2c(c1)OCCO2)N(Cc1cccnc1)c1nc2ccc(F)cc2s1	i	1.21
42	CCn1c(=O)c(N2CCC(C(=O)O)CC2)nc2ccccc21	i	-2.63
43	CC(C)c1noc(-c2cccc(OCC(=O)Nc3nccs3)c2)n1	i	1.57
44	CCCCC/C=C\C/C=C\CCCCCCCC(=O)NCC(=O)O	i	0.42
45	CC(C)c1cc(C2CCCN2C(=O)c2cc(C(F)(F)F)n(C)n2)on1 (stereo unspecified)	i	-0.25
46	O=C(C1=CN(c2cc(F)cc(F)c2)c2cc(Cl)ccc2S1(=O)=O)N1CCCC1	i	-1.49
47	CCC(=O)N1CCCN(c2cc(=O)n(C(C)C)c(=O)n2C(C)C)CC1	i	-1.33
48	Cc1nn2c(NCC3CCCO3)cc(C(C)(C)C)nc2c1-c1ccc(F)cc1 (stereo unspecified)	i	0.29
49	Cc1sc(C)c(S(=O)(=O)NC2CCCCC2)c1-c1cc(C(F)(F)F)on1	i	0.46
50	Cc1cccc(NC(=O)c2ccc3nnc(SCC(=O)Nc4ccc(Cl)cc4)n3c2)c1	i	0.32
51	O=C(NC1CCCc2ccccc21)c1ccc(Nc2ccnc(-c3cccc(F)c3)n2)cc1 (stereo unspecified)	i	-1.23
52	CCN(CC)S(=O)(=O)c1ccc2c(c1)nc(CN(C)C(=O)Nc1ccc(C)cc1Cl)n2C	i	-0.01
53	O=S(=O)(c1cc(-c2cc(C(F)(F)F)on2)cs1)N1CCN(C2CCCCC2)CC1	i	0.06
54	CCC(C)NC(=O)N1CCCN(C2=NS(=O)(=O)C(c3ccc(F)cc3)=C2C)CC1 (stereo unspecified)	i	0.39
55	O=S(=O)(Nc1cccc(-c2cn3ccccc3n2)c1)c1ccc(F)cc1	i	0.66
56	Cc1c(OCC(F)(F)F)ccnc1C[S@@](=O)c1nc2ccccc2[nH]1	i	0.71
57	CCCCCCCCCCC[C@@H](C[C@@H]1OC(=O)[C@H]1CCCCCC)OC(=O)[C@H](CC(C)C)NC=O	i	-0.02
58	CCC(=O)Nc1cccc(-c2noc(C3CCCN(C(=O)c4ccc(OC)cc4C)C3)n2)c1 (stereo unspecified)	i	-1.06
59	O=C(NCC1CCCO1)c1cc(-c2cccnc2)nc2ccc(Br)cc12 (stereo unspecified)	i	-0.48
60	CCCCN1CCN(S(=O)(=O)c2cc(-c3nnc(C4CCC4)o3)co2)CC1	i	0.55

# (list continues)
# Each structure is followed by: Choline anaer gr	Choline anaer gr early
61: CCc1cc(C2CCCN2C(=O)c2cc(C(F)(F)F)n(C)n2)on1 (stereo unspecified)
  i	0.04
62: CCCCN(C)c1ncc(C(=O)O)cc1NS(=O)(=O)c1cc(C)cc(C)c1
  i	0.44
63: CC(C)CCNC(=O)CN(C)S(=O)(=O)c1cc2c(cc1Cl)NC(=O)CO2
  i	-0.32
64: CC(C)n1cnc2nc(CSc3ccc(NC(=O)COc4ccccc4F)cc3)cc(=O)n21
  i	0.33
65: CN1CCN(CC(=O)N2CCCc3ccccc32)CC1
  i	0.28
66: CCS(=O)(=O)N1CCCN(C(=O)C2CC2)CC1
  i	-0.17
67: Cc1cc(C2CCCN2C(=O)c2ccccc2F)on1 (stereo unspecified)
  i	-0.44
68: CC(=O)O[C@H]1CC2(C)[C@@H](C[C@@H](O)[C@H]3[C@@]4(C)CC[C@@H](O)[C@@H](C)[C@@H]4CC[C@@]32C)C1=C(CCC=C(C)C)C(=O)O (stereo partly specified)
  i	-1.78
69: COc1cc(=O)n(-c2ccc(C)cc2)nc1C(=O)Nc1cccc(Br)c1
  i	-0.45
70: O=c1[nH]c(=O)n(Cc2cccnc2)c2c1CN(Cc1ccccc1)CN2
  i	-0.42
71: O=C(Cn1cnc2c(sc3ncccc32)c1=O)N1CCN(c2ccc(F)cc2)CC1
  i	-0.19
72: Cn1c(N2CCCC(C(=O)NCCN3CCCC3)C2)cc(=O)n(C)c1=O (stereo unspecified)
  i	-0.32
73: Cc1cc2nc(COC(=O)COc3ccc(C)c(C)c3)cc(=O)n2o1
  i	0.42
74: COCc1cc(C)nc2sc3c(c12)NC(C)N(c1ccc(C)cc1)C3=O (stereo unspecified)
  i	-1.91
75: CCNc1nc(C(N)=O)c(NC(=O)c2ccc(CN3CCCCC3)cc2)s1
  i	-0.16
76: O=C(NCC1CCCO1)c1ccc(Oc2ccnc(-c3ccc(F)cc3)n2)cc1 (stereo unspecified)
  i	0.28
77: Cn1cc(C(=O)N2CCOCC2)c2[nH]c(=O)n(-c3ccc(Cl)cc3)c(=O)c21
  i	-0.69
78: O=C(NCCc1cscn1)C1CCN(C(=O)c2ccc(Br)o2)CC1
  i	-2.35
79: CCN(CC)CCN1C(=O)c2cc3occc3n2CC1(C)C(=O)NC1CCCCC1 (stereo unspecified)
  i	0.26
80: O=c1[nH]c2cc(Cl)c(S(=O)(=O)Nc3ccc(F)cc3F)cc2[nH]1
  i	-0.93
81: Cn1nc(C(=O)Nc2ccccc2)c2c1-c1cc(Cl)ccc1SC2
  i	0.61
82: CCn1nc2c(S(=O)(=O)N3CCN(c4ccc(F)cc4)CC3)cccn2c1=O
  i	0.08
83: CCCc1nnc(NC(=O)CN2C(=O)c3ccccc3S2(=O)=O)s1
  i	-0.7
84: COc1cc(C2CC(=O)C3=C(C2)Nc2onc(C)c2C3c2ccc(Cl)cc2)ccc1O (stereo unspecified)
  i	-0.43
85: Cc1nc2c(s1)c(C)nn2-c1ccccc1
  i	0.14
86: Cc1oc(C2CCN(C(=O)c3ccc(Cl)s3)CC2)nc1C(=O)N1CCSCC1
  i	-1.16
87: CCOC(=O)C1CCN(c2ncnc3c2oc2ccccc23)CC1
  i	0.7
88: Cc1noc2c1C(c1ccc(O)c(O)c1)C1=C(CC(c3ccccc3)CC1=O)N2 (stereo unspecified)
  i	0.21
89: CC(=O)O[C@@]1(C(C)=O)CC[C@H]2[C@@H]3CCC4=CC(=O)CCC4=C3C(c3ccc(N(C)C)cc3)C[C@@]21C (stereo partly specified)
  i	0.25
90: O=C(CC1CCN(S(=O)(=O)c2ccccc2)CC1)NCCCN1CCOCC1
  i	-0.04
91: O=C(C1CC(=O)N(c2ccc(F)cc2)C1)N1CCN(c2ncnc3c2nnn3-c2ccccc2)CC1 (stereo unspecified)
  i	1
92: OCC(O)[C@@H](O)CO (stereo partly specified)
  i	0.66
93: O=C(Nc1ccccc1)Nc1cccc(-c2noc(C3CC(=O)N(c4ccccc4)C3)n2)c1 (stereo unspecified)
  i	0.65
94: COc1ccc(N(Cc2nc3nc(C)c(Cl)c(C)n3n2)C(=O)CC(C)C)cc1
  i	-0.04
95: Clc1ccc(-c2ccc(CNCc3ccccn3)o2)c(Cl)c1
  i	-0.28
96: CCc1ccc2c(c1)[C@H]1OCC[C@H]1C(c1cc(Cl)ccc1OC)N2 (stereo partly specified)
  i	3.06
97: CCN(Cc1ccccc1)c1ccc(NC(=O)c2ccccc2)cc1C(=O)O
  i	-0.01
98: CCC(C)N(C)C(=O)c1cc2ccccc2c(-c2ccccc2Cl)n1 (stereo unspecified)
  i	-0.09&0.93
99: O=C(Nc1ccc(Br)cc1)C1CCCN(c2nc3cccnc3s2)C1 (stereo unspecified)
  i	0.36
100: COCCc1ccc(OCC(O)CNC(C)C)cc1 (stereo unspecified)
  i	0.28&0.2&0.56&0.03
101: Cc1cc(-c2cc(S(=O)(=O)N(CCN(C)C)Cc3cccs3)c(C)s2)n[nH]1
  i	0.28
102: CC(C)Cc1csc(-c2csc(S(=O)(=O)NCCN3CCOCC3)c2)n1
  i	-0.05
103: O=C(CN1C(=O)CN(C(=O)Nc2ccc(F)cc2)c2ccccc21)N1CCC(N2CCCCC2)CC1
  i	0.33
104: COC(=O)c1ccc(N2CCN(C)CC2)c(NC(=O)C2(c3ccccc3)CCCC2)c1
  i	-1.19
105: O=C(CCc1nc2sc3c(c2c(=O)[nH]1)CCCC3)Nc1ccc(F)c(F)c1
  i	0.32
106: CCCS(=O)(=O)N1CCCn2nc(-c3ccc(OC)c(OC)c3)cc2C1
  i	-0.61

# Screening data as filed in PubChem BioAssay.
